H5N1 CPE: MDCK cell protection from H5N1 avian flu; cytopathic effect, luminescence, 72 h; active compounds read high; no value below 0 was filed and about half of the inactive calls have no number; reference of the scale not given here; inhibition, % at 50 µM; hit rate 0.07% among 96,000; AID 740; in the data active means inhibition above about 25%
Active calls of the source: *; i = inactive. A portion of the library; count on the stated rates, not on these rows.

Molecule,H5N1 CPE
COc1cccc(C2C3=C(CC(C)(C)CC3=O)OC(N)=C2[N+](=O)[O-])c1 (configuration not stated),0.3
Cc1nnc(C)n1N1C(=O)c2cccc3cccc(c23)C1=O,i
O=C(NCCCN1CCOCC1)c1ccc(CNS(=O)(=O)c2ccc(F)cc2)cc1,i
O=C(c1ccco1)N1CCCC(c2ccccc2)C1 (configuration not stated),3.5
COc1ccccc1CNC(=O)C1CC(=O)N(c2ccc(C)c(C)c2)C1 (configuration not stated),i
c1ccc(Sc2ncnc3c2oc2ccccc23)cc1,0.3
CC(C)(C)OC(=O)N1CCC(c2c(C(=O)O)cnn2-c2ccccc2)CC1,i
Cc1ccc(CNC(=O)c2ccc(NS(=O)(=O)c3c(C)noc3C)cc2)cc1,i
CC(=O)C1C(=O)c2c(cccc2[N+](=O)[O-])C1=Nc1ccccc1C (configuration not stated),2.7
CCN1CCN(CCNC(=O)c2cn(C(C)c3ccccc3F)nn2)CC1 (configuration not stated),i
Cc1cc(C)nc(Sc2c(C)nn(-c3ccccc3)c2C)n1,0.1
Cc1ccc(C(=O)c2oc3nc(C)cc(C)c3c2N)cc1,0.6
Cc1ccnc(NC(=O)c2cccs2)c1,3.8
Cc1cc2ncn(-c3ncnc4sc(C)c(C)c34)c2cc1C,1.5
O=C(C1CC1)N1CCc2cc(S(=O)(=O)N3CCOCC3)ccc21,1.0
COc1ccc(OC)c(S(=O)(=O)N2CCC(C(=O)Nc3cc(C)ccc3C)CC2)c1,i
O=C(NCC1CCCO1)c1onc(CSc2ccc(F)c(F)c2)c1C(=O)O (configuration not stated),0.1
COC(=O)c1ccc(OC)c(CSc2nnc(-c3ccc(C(C)(C)C)cc3)o2)c1,2.9
C=C(C)COc1ccc(-c2[nH]ncc2Oc2cccc(OC)c2)c(O)c1,2.4
O=C(/C=C/c1ccccc1)NC(=S)Nc1ccccc1C(=O)NC1CCCCC1,i
Cc1ccc(CSc2nnc(-c3ccco3)n2N)cc1,0.3
CC1=C(C(=O)OC(C)C)C(c2ccc(Br)s2)NC(=O)N1C (configuration not stated),0.5
CCOc1cc(C2c3c(n[nH]c3C)C(=O)N2c2ccc(Br)cc2)ccc1O (configuration not stated),i
CN1CCc2c(sc3c2C(=O)NC(c2cccs2)N3)C1 (configuration not stated),i
Cn1ncc(C#N)c1/N=C/N1CCCCC1,0.7
Cn1c(C(=O)NCCCN2CCCCCC2)cc2c(=O)n(C)c3ccccc3c21,i
CC(=O)Nc1sc2c(c1C(c1ccc(F)cc1)N1CCOCC1)CCCC2 (configuration not stated),1.2
Cc1ccc2c(c1)nnn2C1CCN(S(=O)(=O)c2ccc(C(=O)N3C(C)CCCC3C)cc2)CC1 (configuration not stated),i
COc1ccc(S(=O)(=O)N2CCN(CC(=O)Nc3ccc(C)c(F)c3)CC2)cc1,1.5
O=C(NCc1ccccc1)c1noc2c1CCCC2,i
C(=N\n1cnc2ccccc21)/c1cccnc1,4.4
CCOc1cc(CNc2ccc(O)cc2)cc(Br)c1OCc1ccccc1F,1.6
O=C(CCNS(=O)(=O)c1ccc(Cl)cc1)N1CCC2(O)CCCCC2C1 (configuration not stated),i
Cc1ccc(N=CC2=C(O)CC(c3ccco3)CC2=O)cc1 (configuration not stated),i
CC(=O)NC(=O)c1nnn(Cc2ccccc2)c1NC(C)=O,i
COc1ccc(NC2=NC(=S)N(c3cccc(C)c3)C23CCCCC3)cc1,i
CCOCCOC(=O)c1ccc(-n2cncn2)nc1,i
O=C(CCCn1c(=S)[nH]c2ccccc2c1=O)NCc1ccco1,i
Nc1c(C(=O)NCc2ccc(Cl)cc2)sc2nc3c(c(C(F)(F)F)c12)CCC3,i
CCOC(=O)CC1C(=O)NCCN1Cc1cccc(C(F)(F)F)c1 (configuration not stated),i
CCn1c(Cc2cccn2C)nnc1SCC(=O)c1ccc(C)cc1,1.7
COc1ccc2c(c1)c(=O)oc1cc3occ(C(C)(C)C)c3cc12,i
Cn1c(NC(=O)c2ccc(Cl)cc2)c(-c2ccccn2)c(=O)c2ccccc21,0.4
COc1ccc(CC(=O)Nc2cccc(/C(C)=N/NC(=O)c3cccc([N+](=O)[O-])c3)c2)cc1,1.2
COCCCN(C)C1CCN(C(=O)Nc2ccc(F)cc2)CC1,0.8
CC(NC(=O)c1ccnc(C(C)(C)C)c1)c1ccccc1 (configuration not stated),0.1
COc1cccc(C(c2nnnn2Cc2ccco2)N2CCN(c3cccc(C)c3C)CC2)c1OC (configuration not stated),i
Cc1ccc(S(=O)(=O)N(C)CC(=O)O/N=C(\N)c2ccc([N+](=O)[O-])cc2)cc1,i
O=C(Cc1ccc(Cl)cc1Cl)OCC(=O)c1ccc[nH]1,i
CN(C(=O)c1ccccc1Cl)c1ccccc1,2.9
CCOC(=O)CCn1c(=O)c2c(nc(Br)n2Cc2ccccc2)n(C)c1=O,3.7
COc1ccc(S(=O)(=O)c2ccc(OC)c(OC)c2)cc1OC,i
O=C(c1cccn2c(=O)c3ccccc3nc12)N1CCN(Cc2ccc3c(c2)OCO3)CC1,1.7
COc1ccc(C(=O)NCCc2cn3ccc(C)cc3n2)cc1,1.8
CCC(C)(C)NC(=O)C(c1cccn1C)N(C(=O)Cn1nnc2ccccc21)c1ccccc1OC (configuration not stated),i
Cc1ccc(OCC2Cn3c(nc4c3c(=O)[nH]c(=O)n4C)O2)cc1 (configuration not stated),i
O=C(Nc1ccc(N2CCCCC2)cc1)c1cccnc1,0.1
COC(=O)c1cc(NC(=O)c2nccnc2C(=O)O)cc(C(=O)OC)c1,1.1
CC(=O)Nc1ccc(OCC(O)Cn2nc(C)nc2C)cc1 (configuration not stated),i
O=C(NC1=NCCS1)c1ccc(Cl)s1,i

Reprinted at random: six entries already listed
Molecule,H5N1 CPE
COC(=O)c1cc(NC(=O)c2nccnc2C(=O)O)cc(C(=O)OC)c1,1.1
CCOC(=O)CCn1c(=O)c2c(nc(Br)n2Cc2ccccc2)n(C)c1=O,3.7
Cc1ccc(OCC2Cn3c(nc4c3c(=O)[nH]c(=O)n4C)O2)cc1 (configuration not stated),i
CC(=O)Nc1ccc(OCC(O)Cn2nc(C)nc2C)cc1 (configuration not stated),i
CN(C(=O)c1ccccc1Cl)c1ccccc1,2.9
O=C(c1cccn2c(=O)c3ccccc3nc12)N1CCN(Cc2ccc3c(c2)OCO3)CC1,1.7

Further entries follow:
Molecule,H5N1 CPE
C=C(C)C1CC=C(CN2CC(C)OC(C)C2)CC1 (configuration not stated),i
COc1ccc(-c2noc(CSc3nnc(-c4ccncc4)n3-c3ccc(F)cc3)n2)cc1OC,i
Cc1cc(C)n(-c2cc(-c3ccccc3)nc(C)n2)n1,i
O=C(Nc1ccccc1)c1cnc2n(c1=O)CCS2,i
COc1ccc(S(=O)(=O)Nc2ccccc2C(=O)NC(C)(C)C)cc1OC,i
COc1nc(-c2ccc(Cl)cc2)ccc1-c1noc(-c2ccco2)n1,i
CCOc1ccccc1-n1c(SCC(=O)N2CCCC2)nnc1-c1ccc(O)cc1,1.4
Cc1ccc2[nH]c3c(c2c1)CN(C(=O)CN1CCN(Cc2ccc4c(c2)OCO4)CC1)CC3,i
N#CCSc1nc2cc(C(=O)N3CCC(C(N)=O)CC3)ccc2c2nc3ccccc3n12,1.9
NC(=O)C(c1cccc(Cl)c1)c1ncc(C(F)(F)F)cc1Cl (configuration not stated),0.4
COc1cc2[nH]c(=O)n(Cc3ccc(C(=O)NC4CCCC4)cc3)c(=O)c2cc1OC,i
C(=C\c1nc2ccccc2[nH]1)/c1ccccc1,i

A different layout for part of the listing above.
> C=C(C)C1CC=C(CN2CC(C)OC(C)C2)CC1 (configuration not stated)
  H5N1 CPE = i

> COc1ccc(-c2noc(CSc3nnc(-c4ccncc4)n3-c3ccc(F)cc3)n2)cc1OC
  H5N1 CPE = i

> COc1ccc(S(=O)(=O)Nc2ccccc2C(=O)NC(C)(C)C)cc1OC
  H5N1 CPE = i

> Cc1ccc2[nH]c3c(c2c1)CN(C(=O)CN1CCN(Cc2ccc4c(c2)OCO4)CC1)CC3
  H5N1 CPE = i

Further compounds.
Molecule,H5N1 CPE
Cc1c(C(=O)N2CCCCC2)oc2ccc(S(=O)(=O)N3CC(C)CC(C)C3)cc12 (configuration not stated),6.8
CC1CCN(C(=O)CSc2nc3ccccc3c(=O)n2Cc2ccc3c(c2)OCO3)CC1,i
O=C(Cn1c2c(c(-c3ccccc3Cl)cc1=O)CCC2)N1CCC2(CC1)OCCO2,i
CCOc1c(CNCCNC(=O)c2nonc2N)cccc1OC,0.5
Cc1ccc(S(=O)(=O)CCC(=O)c2ccc(O)cc2O)cc1,0.1
COc1ccc(S(=O)(=O)Cc2ccc(C(=O)N3CCC(C(N)=O)CC3)o2)cc1,2.5
COC(=O)c1cc(OC)c(OC)cc1NC(=O)c1ccco1,i
CCn1cc(C(=O)OCC(=O)Nc2cc(S(=O)(=O)N(C)C)ccc2C)c(=O)c2ccc(C)nc21,i
COC(=O)CNC(=O)CN1C(=O)N(c2ccccc2)C(N(O)C(=O)Nc2ccccc2)C1(C)C (configuration not stated),i
CCOC(=O)C1=C(c2ccccc2)N=c2s/c(=C\c3cc(OC)c(OC)c(OC)c3)c(=O)n2C1c1cccs1 (configuration not stated),i
CCOc1ccc(CCNC(=O)C(C)n2nc(C)n3c(cc4occc43)c2=O)cc1OCC (configuration not stated),2.8
COC(=O)c1[nH]c2ccc(F)cc2c1NC(=O)CCN1CCN(Cc2ccc3c(c2)OCO3)CC1,i
CC1(C)CCN(Cc2ccccc2)C1CC#N (configuration not stated),0.9
O=C(COc1ccc(Cl)cc1)NNC(=O)C(=O)N1CCCCC1,i
CC1CC(C)CN(C(=O)CSc2nc3ccsc3c(=O)n2Cc2ccccn2)C1 (configuration not stated),2.0
O=c1[nH]n(-c2ccc(Cl)cc2)c(=O)c(Cl)c1Cl,0.4
O=C1c2ccccc2C(=O)N1CCCCSc1nc2ccccc2o1,i
CCCNC(=O)NCCc1c(C)[nH]c2ccccc12,1.3
COc1ccc(-c2nn(-c3ccccc3)cc2/C=N/NC(=O)c2ccc(Br)o2)cc1,8.2
Cc1cc(C)n(C2CCCCC2OC(=O)c2ccccc2)n1 (configuration not stated),i
Cn1cc(S(=O)(=O)CC(=O)N2CCCc3ccccc32)c2ccccc21,3.1
C=CCOc1ccc(C2NC(=O)NC(C)=C2C(=O)OC)cc1 (configuration not stated),i
Cc1cc(C)cc(-c2nnc(SCC(=O)N3CCN(C(=O)c4ccco4)CC3)o2)c1,i
O=C(C(Cc1ccccc1)n1cccc1)N1CCN(Cc2ccccc2)CC1 (configuration not stated),0.6
O=C1C(Cl)=C(N2CCOCC2)C(=O)N1c1cccc(Cl)c1,i
CCC(C)n1[nH]c(=O)c2c(C)cc(C)nc21 (configuration not stated),i
Cc1c(-n2cc(C(=O)c3cc(Br)ccc3O)cc(C#N)c2=O)c(=O)n(-c2ccccc2)n1C,0.7
Nc1nc(-c2ccco2)nn1C(=O)CCc1ccccc1,2.1
O=C(NCCSCc1ccco1)Nc1ccc(Cl)cc1,i
CCOC(=O)c1[nH]c(C)c(/C(O)=C2\C(=O)C(=O)N(CCCN3CCOCC3)C2c2cccnc2)c1C (configuration not stated),i
Cc1cc(C(=O)CN2C(=O)NC3(CCCc4ccccc43)C2=O)c(C)n1Cc1ccccc1 (configuration not stated),i
O=C(CSc1nnnn1-c1ccc2c(c1)OCCO2)Nc1nc2c(s1)CCCC2,i
CN1C(=O)C2(N=c3ccccc3=N2)c2ccccc21,i
CC(C)C(c1nnnn1C(C)(C)C)N1CCN(c2cccc(Cl)c2)CC1 (configuration not stated),1.8
COc1cccc(NC2c3ccccc3C(=O)N2Cc2ccco2)c1 (configuration not stated),0.3
COC(=O)c1ccccc1NC(=O)C1CCCN(S(=O)(=O)c2ccc(F)cc2)C1 (configuration not stated),2.6
O=C1C(=C2SCCCS2)CC/C1=C\c1ccc(F)cc1,2.1
COc1ccccc1N1CCN(C2=NS(=O)(=O)c3ccccc32)CC1,0.3
CCOc1ccc(C2CC(c3ccccc3C)n3nc(N)nc3N2)cc1 (configuration not stated),1.2
C/C(Cl)=C\Cn1c(Nc2cccc(C)c2)nc2c1c(=O)n(C)c(=O)n2C,3.0
CC(C)NC(=O)CC(=O)N/N=C/c1ccc(Br)cc1,i
CC(=C1C(=O)c2ccccc2C1=O)N1CCC(C(N)=O)(N2CCCCC2)CC1,0.4
Cc1c2c(nc3c(C(=O)NC4CCCC4)cnn13)CCCC2,1.1
CN1CCC(N(C)CC(=O)Nc2ccccc2N2CCOCC2)CC1,i
CC(=O)Nc1cc(C(=O)O)ccc1S(=O)(=O)c1ccc(C)cc1,0.2
CCCSc1nc(C)c2cc(C)cc(C)c2n1,i
CC1CN(S(=O)(=O)c2ccc(NC(=O)CCN3C(=O)c4ccccc4C3=O)cc2)CC(C)O1 (configuration not stated),i
CCC(=O)Nc1nnc(-c2ccco2)o1,0.5
COc1ccc2c(c1)CCc1c(C(=O)NCc3ccc(Cl)cc3)noc1-2,i
O=C1CC2(CCCCC2)Oc2ccc(OCC(=O)N3CCOCC3)cc21,2.0
COC(=O)c1sc(NC(=O)c2ccc(Cn3cc(Cl)cn3)o2)c(C#N)c1C,0.3
CN(C)S(=O)(=O)c1ccc(C(=O)Nc2ccc(CN3CCCC3)cc2)cc1,i
CCOC(=O)C(/C=C(\C#N)C(=O)OCC)=C(/N)N1CCN(c2ccc(OC)cc2)CC1,0.8

Compound activity: PubChem BioAssay, SRMLSC
